From PubChem BioAssay
KCNQ2 block: KCNQ2 potassium channel inhibitors, primary screen, cell-based, CHO-K1, FluxOR thallium flux, B-score (AID 2156). Potassium voltage-gated channel subfamily KQT member 2 (Rattus norvegicus), O88943. 20 min; stronger effect = lower value; only compounds with negative scores are shown here; some inactives read as strong as hits. B-score at 10 µM. 1.1% of 310,000 active;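 active = fluorescence ratio B-score at most minus 3 library SDs, with starting brightness B-score within 2 library SDs, cut at about -5.5 in these data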
Target sequence (O88943 whole entry, looked up): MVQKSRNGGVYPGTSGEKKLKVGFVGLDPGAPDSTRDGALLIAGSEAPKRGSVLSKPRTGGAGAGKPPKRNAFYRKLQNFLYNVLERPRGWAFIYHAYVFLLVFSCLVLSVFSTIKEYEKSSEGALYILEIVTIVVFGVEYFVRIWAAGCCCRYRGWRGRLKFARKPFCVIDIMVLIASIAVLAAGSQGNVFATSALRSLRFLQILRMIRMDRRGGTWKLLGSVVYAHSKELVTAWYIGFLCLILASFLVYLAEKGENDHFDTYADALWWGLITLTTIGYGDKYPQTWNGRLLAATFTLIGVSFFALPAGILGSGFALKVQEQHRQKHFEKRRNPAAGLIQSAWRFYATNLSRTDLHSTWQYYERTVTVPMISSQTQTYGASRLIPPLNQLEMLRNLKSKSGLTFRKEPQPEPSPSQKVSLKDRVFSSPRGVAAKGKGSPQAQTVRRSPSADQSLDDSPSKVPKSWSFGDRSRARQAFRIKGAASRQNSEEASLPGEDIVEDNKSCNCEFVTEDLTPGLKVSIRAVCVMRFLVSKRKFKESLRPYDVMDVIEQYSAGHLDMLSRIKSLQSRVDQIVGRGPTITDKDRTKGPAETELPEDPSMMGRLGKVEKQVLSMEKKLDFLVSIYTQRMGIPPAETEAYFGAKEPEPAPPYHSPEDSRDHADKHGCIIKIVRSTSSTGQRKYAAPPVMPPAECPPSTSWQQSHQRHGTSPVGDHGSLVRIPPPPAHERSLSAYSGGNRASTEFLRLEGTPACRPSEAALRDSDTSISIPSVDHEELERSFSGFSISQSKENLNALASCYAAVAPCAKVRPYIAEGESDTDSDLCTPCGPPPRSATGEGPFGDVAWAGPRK
KCNQ2 block baseline: recorded beside KCNQ2 block, whose call it bears; B-score; measured here: initial fluorescence intensity artifact check;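 brightness before thallium and not channel activity; 0 = typical well and far values either way flag optical interference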
* hit, by the source's call.

Start of the listing, in advance (6 entries):
COc1ccccc1N(C)S(=O)(=O)c1ccc(C(=O)OCC(=O)N(C)c2ccccc2)cc1 was read as KCNQ2 block inactive and KCNQ2 block baseline 1.6.
`O=C(COc1ncnc2sccc12)Nc1cccc(S(=O)(=O)N2CCCC2)c1` gave KCNQ2 block inactive and KCNQ2 block baseline 3.4.
`CC1=NN(c2ccccc2)C(=O)/C1=C/c1cccs1` gave KCNQ2 block inactive and KCNQ2 block baseline 0.94.
Cc1ccc(NC(N)=S)cc1C was read as KCNQ2 block inactive and KCNQ2 block baseline -1.7.
For CC(C)(C)NCCOc1ccc2ccccc2c1 the results were KCNQ2 block inactive and KCNQ2 block baseline -1.3.
Screening CSCC[C@H](NC(=O)OC(C)(C)C)C(=O)N/N=C/c1cc2ccc(C)cc2nc1Cl returned KCNQ2 block inactive and KCNQ2 block baseline 0.4.

The listing, repeating the preview:
COc1ccccc1N(C)S(=O)(=O)c1ccc(C(=O)OCC(=O)N(C)c2ccccc2)cc1 was read as KCNQ2 block inactive and KCNQ2 block baseline 1.6.
`O=C(COc1ncnc2sccc12)Nc1cccc(S(=O)(=O)N2CCCC2)c1` gave KCNQ2 block inactive and KCNQ2 block baseline 3.4.
`CC1=NN(c2ccccc2)C(=O)/C1=C/c1cccs1` gave KCNQ2 block inactive and KCNQ2 block baseline 0.94.
Cc1ccc(NC(N)=S)cc1C was read as KCNQ2 block inactive and KCNQ2 block baseline -1.7.
For CC(C)(C)NCCOc1ccc2ccccc2c1 the results were KCNQ2 block inactive and KCNQ2 block baseline -1.3.
Screening CSCC[C@H](NC(=O)OC(C)(C)C)C(=O)N/N=C/c1cc2ccc(C)cc2nc1Cl returned KCNQ2 block inactive and KCNQ2 block baseline 0.4.
For C=CCn1c(-c2csc3c2CCC(C)C3)n[nH]c1=S (configuration not stated) the results were KCNQ2 block inactive and KCNQ2 block baseline -0.23.
For CC(C)NC(=O)c1nc2ccccc2s1 the results were KCNQ2 block inactive and KCNQ2 block baseline -0.19.
CCOC(=O)C1=C(CC)OC(N)=C(C#N)C1c1ccsc1 (configuration not stated) was read as KCNQ2 block inactive and KCNQ2 block baseline -0.71.
`CC(=O)c1ccc(NC(=O)CSC2=NS(=O)(=O)c3cc(Cl)ccc3N2)cc1` gave KCNQ2 block inactive and KCNQ2 block baseline 0.04.
Screening O=C(Cn1ncc2c3ccccc3n(Cc3ccccc3)c2c1=O)NC1CCCC1 returned KCNQ2 block inactive and KCNQ2 block baseline -0.19.
Brc1ccc(/C=N/Nc2nc3ccccc3o2)cc1 was read as KCNQ2 block inactive and KCNQ2 block baseline -0.1.
`O=C(Nc1cc(Cl)ccc1Oc1ccccc1)C1=COCCO1` gave KCNQ2 block inactive and KCNQ2 block baseline -0.07.
`COc1ccc(O)c(/C=N/Nc2nc(C)cc(-c3ccccc3)n2)c1` gave KCNQ2 block inactive and KCNQ2 block baseline -0.9.
O=[N+]([O-])c1ccccc1S(=O)(=O)Nc1ccc(S(=O)(=O)Nc2nccs2)cc1 was read as KCNQ2 block inactive and KCNQ2 block baseline 0.36.
CC(Cc1c[nH]c2ccccc12)C(=O)N1CCN(c2ccccc2F)CC1 (configuration not stated) was read as KCNQ2 block inactive and KCNQ2 block baseline 0.82.
For CC(C)=CCN1CCN(Cc2coc3ccc(C)cc3c2=O)CC1CCO (configuration not stated) the results were KCNQ2 block inactive and KCNQ2 block baseline -0.76.
`O=C1c2ccccc2C(Nc2ccc3c(c2)OCCO3)N1c1ccccn1` (configuration not stated) gave KCNQ2 block inactive and KCNQ2 block baseline 0.64.
CCCCOc1ccc(CSC(=N)N)cc1[N+](=O)[O-] was read as KCNQ2 block inactive and KCNQ2 block baseline 0.02.
Cc1cccc(N2C(=O)CCC2=O)c1 was read as KCNQ2 block inactive and KCNQ2 block baseline 0.84.
`Cc1c(C(=O)NCCC2=CCCCC2)cccc1[N+](=O)[O-]` gave KCNQ2 block inactive and KCNQ2 block baseline -1.8.
CCN(CC)C(=S)SCC(=O)Nc1nc(-c2ccccc2)c(-c2ccccc2)o1 was read as KCNQ2 block inactive and KCNQ2 block baseline -0.63.
`COc1ccc(CN2CCNC(=O)C2CC(=O)NC2CCCCC2)c(OC)c1` (configuration not stated) gave KCNQ2 block inactive and KCNQ2 block baseline -0.74.
For CC1CCCN(C(=O)c2cn(-c3ccccc3)nc2-c2cccnc2)C1 (configuration not stated) the results were KCNQ2 block inactive and KCNQ2 block baseline 0.12.
Cc1cc(NC(=O)c2cc([N+](=O)[O-])ccc2Cl)no1 was read as KCNQ2 block inactive and KCNQ2 block baseline -0.93.
Screening COc1ccc2sc(N3C(=O)C4CC=C(C)CC4C3=O)nc2c1 (configuration not stated) returned KCNQ2 block inactive and KCNQ2 block baseline 1.4.
`Cc1cc(C)n2nc(CC(=O)NNC(=O)COc3ccccc3)nc2n1` gave KCNQ2 block inactive and KCNQ2 block baseline -0.45.
`CCc1c(C(=O)NC2CCCC2)csc1C` gave KCNQ2 block inactive and KCNQ2 block baseline -1.4.
Screening O=C(NC(=S)NNS(=O)(=O)c1ccccc1)c1ccccc1[N+](=O)[O-] returned KCNQ2 block inactive and KCNQ2 block baseline 0.57.
For Nc1ccc(C(=O)C(=O)c2ccccc2)cc1 the results were KCNQ2 block inactive and KCNQ2 block baseline 0.05.
O=[N+]([O-])c1ccccc1COc1ccc(Cl)c2cccnc12 was read as KCNQ2 block inactive and KCNQ2 block baseline -3.2.
`Cc1cccc(C)c1OCC(O)CNS(=O)(=O)c1ccccc1C(=O)N1CCOCC1` (configuration not stated) gave KCNQ2 block inactive and KCNQ2 block baseline 1.6.
Screening Cc1cc(NC(=O)CSc2ccc(-c3ccc(F)cc3)nn2)no1 returned KCNQ2 block inactive and KCNQ2 block baseline -0.25.
Screening CCc1nc(CN(C)C(=O)C2CCC(=O)N(CCc3cccc(F)c3)C2)no1 (configuration not stated) returned KCNQ2 block inactive and KCNQ2 block baseline -1.5.
COC(=O)CN1C2(C#N)CCCCC2CC2CCCCC21C#N (configuration not stated) was read as KCNQ2 block inactive and KCNQ2 block baseline 1.2.
Screening COc1ccc(C(CC(=O)O)NC(C)=O)cc1OC (configuration not stated) returned KCNQ2 block inactive and KCNQ2 block baseline 1.3.
`CC1=CC(C)(C)N(S(=O)(=O)c2ccc(C)cc2)c2ccccc21` gave KCNQ2 block inactive and KCNQ2 block baseline 2.2.
COc1ccc([N+](=O)[O-])c(OC)c1C(=O)NC(=O)Nc1c(F)cc(F)cc1F was read as KCNQ2 block inactive and KCNQ2 block baseline -1.6.
Screening COc1ccccc1CCN=C(N)NS(=O)(=O)c1ccc(C)c(C)c1 returned KCNQ2 block inactive and KCNQ2 block baseline -0.21.
Screening COC(=O)CC1=C(C(=O)OC)C(c2ccncc2)C(C#N)=C(N)O1 (configuration not stated) returned KCNQ2 block inactive and KCNQ2 block baseline 1.4.
`Cc1nnc(NC(=O)CSc2cn(Cc3ccccc3)c3ccccc23)s1` gave KCNQ2 block inactive and KCNQ2 block baseline -0.76.
COc1cccc(C(=O)NCCSc2c(C)[nH]c3ccccc23)c1OC was read as KCNQ2 block inactive and KCNQ2 block baseline -1.5.
Cn1c(=O)c(C(=O)CSc2nnc(Nc3ccccc3)s2)c(N)n(Cc2ccccc2)c1=O was read as KCNQ2 block inactive and KCNQ2 block baseline 1.1.
`Cc1cc(C)n(-c2nnc(N3CCN(c4ccc(F)cc4)CC3)nn2)n1` gave KCNQ2 block inactive and KCNQ2 block baseline -1.1.
C=CCOc1ccc(Br)cc1/C=N/O was read as KCNQ2 block inactive and KCNQ2 block baseline -0.26.
Screening COCC(C)NC(=O)C1CC(c2cccc(Br)c2)=NO1 (configuration not stated) returned KCNQ2 block inactive and KCNQ2 block baseline 0.67.
For O=C(Nc1ccc(Cl)cn1)c1cccc(S(=O)(=O)N2CCCC2)c1 the results were KCNQ2 block inactive and KCNQ2 block baseline 1.5.
`Cc1c(C)c2ccc(OC(C)C(=O)NCCCn3ccnc3)c(C)c2oc1=O` (configuration not stated) gave KCNQ2 block inactive and KCNQ2 block baseline 2.2.
Screening CCOc1ccc2[nH]c(=O)c(CN(CCO)C(c3nnnn3C3CCCCC3)C(C)C)cc2c1 (configuration not stated) returned KCNQ2 block inactive and KCNQ2 block baseline -1.8.
COc1ccc(CCNC(=O)CSc2ccsc2[N+](=O)[O-])c(OC)c1 was read as KCNQ2 block inactive and KCNQ2 block baseline 0.19.
Cc1ccc2nc3c(cc(C(=O)NCc4ccco4)c(=N)n3Cc3ccco3)c(=O)n2c1 was read as KCNQ2 block inactive and KCNQ2 block baseline 0.52.
NC(=O)CSc1nnc(Cc2csc(Nc3ccc(F)cc3)n2)n1Cc1ccccc1 was read as KCNQ2 block inactive and KCNQ2 block baseline -0.35.
CCn1c(SCC(=O)Nc2ccc(C(C)=O)cc2)nc2nc3c(cc2c1=O)CCCC3 was read as KCNQ2 block inactive and KCNQ2 block baseline 0.76.
Screening Cc1cc(C)c2cc(C#N)c(SCC(=O)NCC3CCCO3)nc2c1 (configuration not stated) returned KCNQ2 block inactive and KCNQ2 block baseline 1.9.
Screening O=C1C=C(NCCOC23CC4CC(CC(C4)C2)C3)C2(CCCCC2)O1 returned KCNQ2 block inactive and KCNQ2 block baseline 0.22.
For Cc1occc1C(=O)NCc1ccccc1F the results were KCNQ2 block inactive and KCNQ2 block baseline 0.39.
Screening COc1cc(C)c(NC(=O)COc2ccc3c(c2)OCO3)cc1C returned KCNQ2 block inactive and KCNQ2 block baseline 0.95.
O=C(O)c1sc2cc(C(F)(F)F)cnc2c1-c1cccs1 was read as KCNQ2 block inactive and KCNQ2 block baseline -0.74.
`COCC(=O)N(Cc1cc2ccc(C)cc2[nH]c1=O)c1ccc(C)cc1C` gave KCNQ2 block inactive and KCNQ2 block baseline -0.24.
`CCOc1ccccc1NC1=C(Cl)C(=O)N(c2ccc(OC)cc2)C1=O` gave KCNQ2 block inactive and KCNQ2 block baseline -1.7.

Quoted from the entries so far (four entries):
`Cc1c(C(=O)NCCC2=CCCCC2)cccc1[N+](=O)[O-]` gave KCNQ2 block inactive and KCNQ2 block baseline -1.8.
CCN(CC)C(=S)SCC(=O)Nc1nc(-c2ccccc2)c(-c2ccccc2)o1 was read as KCNQ2 block inactive and KCNQ2 block baseline -0.63.
`COc1ccc(CN2CCNC(=O)C2CC(=O)NC2CCCCC2)c(OC)c1` (configuration not stated) gave KCNQ2 block inactive and KCNQ2 block baseline -0.74.
For CC1CCCN(C(=O)c2cn(-c3ccccc3)nc2-c2cccnc2)C1 (configuration not stated) the results were KCNQ2 block inactive and KCNQ2 block baseline 0.12.

Next records follow:
COCCOC(=O)c1[nH]c2c(c1C)C(=O)CC(c1cc(OC)ccc1OC)C2 (configuration not stated) was read as KCNQ2 block inactive and KCNQ2 block baseline -1.6.
CN1CCN(C(=O)c2ccc(S(=O)(=O)c3ccc(Br)cc3)cc2)CC1 was read as KCNQ2 block inactive and KCNQ2 block baseline -0.55.
N#Cc1ccccc1CSc1nc2ccc(NC(=O)c3ccccc3C(=O)O)cc2s1 was read as KCNQ2 block inactive and KCNQ2 block baseline 0.13.
Screening O=C(Nc1ccccc1C(=O)O)c1cc(S(=O)(=O)N2CCCCCC2)ccc1Cl returned KCNQ2 block inactive and KCNQ2 block baseline 3.4.
`CC1(C(=O)OCC(=O)Nc2ccccc2Cl)CC1(Cl)Cl` (configuration not stated) gave KCNQ2 block inactive and KCNQ2 block baseline 0.92.
CCCS(=O)(=O)N1CCN=C1SCc1ccc(C)cc1 was read as KCNQ2 block inactive and KCNQ2 block baseline -0.51.
CC(Sc1nc2ncc(Cl)cc2[nH]1)C(=O)c1c(N)n(C)c(=O)n(C)c1=O (configuration not stated) was read as KCNQ2 block inactive and KCNQ2 block baseline -1.8.
`Cc1ccc(-c2nc(CS(=O)(=O)CC(=O)N3CC(C)CC(C)C3)c(C)o2)cc1` (configuration not stated) gave KCNQ2 block inactive and KCNQ2 block baseline -0.9.
`CCc1cc(Cn2nc(C(=O)O)cc2-c2ccccc2)on1` gave KCNQ2 block inactive and KCNQ2 block baseline 0.25.
CC(=O)N1CCCc2cc(S(=O)(=O)N3CCc4ccccc4C3)ccc21 was read as KCNQ2 block inactive and KCNQ2 block baseline -2.
`Cn1c(CC(=O)Nc2ccc(Cl)c(Cl)c2)nnc1SCC(=O)N1CCN(c2ccccc2)CC1` gave KCNQ2 block inactive and KCNQ2 block baseline 0.56.
Screening Cc1cc(Cl)c2oc(C(=O)N(C)Cc3nccn3C)c(C)c2c1 returned KCNQ2 block inactive and KCNQ2 block baseline -0.69.
Screening Cc1nn(-c2ccc(F)cc2)c(-n2cccc2)c1C(=O)N1CCN(C(=O)c2ccco2)CC1 returned KCNQ2 block inactive and KCNQ2 block baseline -2.
COCc1cc(C)nc(SCc2ccc([N+](=O)[O-])cc2)c1C#N was read as KCNQ2 block inactive and KCNQ2 block baseline 0.09.
N#C/C(=C\c1ccccn1)c1nc2ccccc2s1 was read as KCNQ2 block inactive and KCNQ2 block baseline -0.23.
Screening Cc1ccc(C(=O)COC(=O)c2ccc(-c3cnc4ccccc4n3)cc2)cc1C returned KCNQ2 block inactive and KCNQ2 block baseline -1.7.
`COc1cccc(CN(C)C(=O)c2ccccc2Sc2ccccc2C#N)c1` gave KCNQ2 block inactive and KCNQ2 block baseline -0.52.
`CSc1ccccc1C(=O)Nc1cccc(C(C)=O)c1` gave KCNQ2 block inactive and KCNQ2 block baseline -0.59.
`CCn1cc(C(=O)N[C@@H](CC(C)C)C(=O)NCCCn2ccnc2)c(=O)c2cc3c(cc21)OCO3` gave KCNQ2 block inactive and KCNQ2 block baseline 4.9.
`COc1cc(/C=C2\SC(=S)N(CC(=O)NC3=NCCS3)C2=O)cc(OC)c1OC` gave KCNQ2 block inactive and KCNQ2 block baseline -0.6.
`Cc1c(Nc2cc(N3CCOCC3)c3nonc3c2[N+](=O)[O-])c(=O)n(-c2ccccc2)n1C` gave KCNQ2 block inactive and KCNQ2 block baseline 1.1.
`Cc1ccccc1OCC(=O)N(CC(C)C)c1c(N)n(CC(C)C)c(=O)[nH]c1=O` gave KCNQ2 block inactive and KCNQ2 block baseline 0.11.
`Cc1cccc(N=C2NN=C(c3ccccc3F)CS2)c1C` gave KCNQ2 block inactive and KCNQ2 block baseline -1.1.

This is a subset, so the mix of outcomes need not match the whole.
